MARV entry inh: inhibitors of Marburg virus binding or cell entry; hit rate 1.8% among 300,000; Marburg virus pseudotyped entry inhibition, cell reporter; control for the full effect not named in the record; about a third of the inactives were read at about 46 µM; Potency, µM (titrated, usually from 37.8 µM), for inactives: top-dose activity change, negative = inhibition, actives largely listed as inhibitors; active = well fitted inhibition curve with a large enough effect; inconclusive = small, poorly fitted or top-dose-only effect, or effect the other way; inactive = flat fitted curve, though single readings scatter; tested in HEK293 cells; about a fifth of its hits are not listed in these tables; further: on the % scale 0 is the no-effect control and ±100 the full control effect; luciferase read-out
2A StopGo: FMDV 2A StopGo reporter, luciferase signal. hit rate 1.2% among 410,000. Potency, µM (top dose mostly 57.9 µM), inactives show top-dose signal change, negative = less light. human cells with a luciferase reporter of 2A StopGo recoding; control for the full effect not named in the record; active = well fitted falling curve with a large enough effect; inconclusive = small, poorly fitted or top-dose-only effect; inactive = no such curve, though single readings can be large or run the other way; tested in HEK293T cells; further: on the % scale 0 is the no-effect control and ±100 the full control effect; nearly all actives have a fitted effect of over 45% in size; luciferase light after 4 h
RE007 growth inh: less growth of the S. pombe RE007 Vpr strain. Potency, µM (titrated, usually from 92.2 µM), without a hit: at the highest dose activity change, negative = less growth. S. pombe RE007 Vpr strain, BacTiter-Glo ATP luminescence, 24 h; control for the full effect not named in the record. AID 651644. hit rate 0.21% among 360,000; active = well fitted falling curve with a large enough effect; inconclusive = small, poorly fitted or top-dose-only effect; inactive = no such curve, though single readings can be large or run the other way;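 further: on the % scale 0 is the no-effect control and ±100 the full control effect; nearly all actives have a fitted effect of over 50% in size; the assay follows cell death caused by Vpr and the record does not say whether a fall means rescue or toxicity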
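Fission yeast strain RE007, carrying one chromosomally integrated HIV-1 vpr copy, was seeded at OD 0.01 in PMG+AL medium with 23 nL pinned compound. After 24 h at 30 °C and 99% humidity, viability was read by BacTiter-Glo luminescence.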
NS1 function inh: inhibitors of influenza NS1 protein function; S. cerevisiae slowed by influenza A NS1, growth recovery by OD600; Potency, µM (doses to about 46.1 µM), inactives show at the highest dose activity, positive = more growth; hit rate 0.4% among 270,000; AID 2326; further: actives are rising curves; nearly all actives have a fitted effect of over 50% in size
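In this qHTS, NS1 from influenza A is expressed in budding yeast, where it slows growth. Cells are switched from glucose to 2% galactose medium (pH 6.0, -URA), treated with compound, and growth recovery is read at OD600.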
SARS PLP yeast: SARS-CoV PLP inhibition in yeast. S. cerevisiae expressing SARS-CoV PLpro, growth rescue; control for the full effect not named in the record. Potency, µM (top dose mostly 32.9 µM), without a hit: top-dose activity, positive = growth rescue. hit rate 0.19% among 330,000; further: 0% is about no effect; nearly all actives have a fitted effect of over 55% in size; growth read by luminescence after 48 h
LASV entry inh: inhibitors of Lassa virus binding or cell entry. Lassa virus pseudotype entry inhibition, cell reporter; control for the full effect not named in the record. Potency, µM (doses to about 37.9 µM), for the others: top-dose activity change, negative = inhibition, actives largely listed as inhibitors. hit rate 1.2% among 300,000. AID 540256; active means well fitted inhibition curve with a large enough effect; inconclusive means small, poorly fitted or top-dose-only effect, or effect the other way; inactive means flat fitted curve, though single readings scatter; tested in HEK293 cells; further: on the % scale 0 is the no-effect control and ±100 the full control effect; nearly all actives have a fitted effect of over 50% in size; luciferase read-out
Cruzain noTriton: inhibitors of Trypanosoma cruzi cruzain without detergent; purified cruzain, Z-FR-AMC fluorescence, no detergent; P25779; Potency, µM, for the others: max response, negative = inhibition, actives largely listed as inhibitors; AID 1476; hit rate 2.3% among 200,000; active means well fitted curve in the direction sought with a large enough effect; inconclusive means small, poorly fitted or top-dose-only effect, or another doubt; inactive means no such curve, though single readings can be large; an effect the other way counts as inactive or inconclusive;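 further: plate controls were enzyme without inhibitor for no effect and buffer without enzyme for full effect; nearly all actives have a fitted effect of over 40% in size; top concentration of the series not given in the record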
Target sequence (P25779 123-467 limits assumed): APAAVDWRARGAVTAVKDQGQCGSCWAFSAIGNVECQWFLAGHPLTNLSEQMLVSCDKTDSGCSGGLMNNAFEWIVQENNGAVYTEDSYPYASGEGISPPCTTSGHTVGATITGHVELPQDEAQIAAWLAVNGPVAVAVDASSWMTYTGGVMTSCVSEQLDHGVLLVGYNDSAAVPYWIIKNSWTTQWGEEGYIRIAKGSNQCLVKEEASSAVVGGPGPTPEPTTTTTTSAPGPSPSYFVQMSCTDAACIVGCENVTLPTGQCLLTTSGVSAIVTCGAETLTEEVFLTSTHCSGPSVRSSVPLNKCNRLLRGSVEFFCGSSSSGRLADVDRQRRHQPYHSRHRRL
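Purified cruzain at 1.5 nM, pre-incubated 15 min with compound at room temperature in 100 mM sodium acetate pH 5.5, 5 mM DTT, 0.00005% Triton X-100. Reaction started with 2 uM Z-FR-AMC; AMC fluorescence increase over 60 s gives rate.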
Cruzain Triton: cruzain (T. cruzi) inhibition with detergent. hit rate 0.43% among 200,000. purified cruzain, Z-FR-AMC fluorescence, 0.01% Triton. Potency, µM, for inactives: max response, negative = inhibition, hits mostly inhibitors. P25779; active means well fitted curve in the direction sought with a large enough effect; inconclusive means small, poorly fitted or top-dose-only effect, or another doubt; inactive means no such curve, though single readings can be large; an effect the other way counts as inactive or inconclusive;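 further: plate controls were neutral wells for no effect and buffer without enzyme for full effect; nearly all actives have a fitted effect of over 40% in size; top concentration of the series not given in the record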
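In this qHTS format, compounds are incubated with 1.5 nM cruzain for 15 min at room temperature before 2 uM Z-FR-AMC is added. Release of AMC is followed at 360/450 nm, and progress is taken as the 60 s fluorescence difference.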
* hit, by the source's call; ? = inconclusive; nt = no result given; & = joins results of further samples; [ ] = remark or other dose. Unless noted, the call rests on the fitted dose curve; in most records, active means well fitted rising curve with a large enough effect; inconclusive means small, poorly fitted or top-dose-only effect; inactive means no such curve, though single readings can be large or run the other way. Potency means the concentration at half of the fitted maximal effect.

Values run as follows: MARV entry inh	2A StopGo	RE007 growth inh	NS1 function inh	SARS PLP yeast	LASV entry inh	Cruzain noTriton	Cruzain Triton
> CC(=O)c1cccc(CN2CCN(C3CCCCC3)C(CCO)C2)c1 (stereo unspecified)
→ -20.3%[46.1 µM]	-5.9%	-16.0%	0.6%	0.2%	-11.2%	nt	nt
> O=c1c2ccccc2ncn1Cc1cccc2ccccc12
→ nt	-4.1%	8.1%	-0.4%	0.9%	nt	nt	nt
> O=C(Nc1cccc(C(=O)O)c1)Nc1cccc2ccccc12
→ ?	-5.5%	4.3%	2.9%	-0.4%	?	nt	nt
> CCC(C(=O)Nc1cccc(-c2cn3cccnc3n2)c1)c1ccccc1 (stereo unspecified)
→ nt	-12.3%	nt	nt	nt	?	?	-2.5%
> COCCNC(=O)c1cc2c(=O)n3cccc(C)c3nc2n(Cc2ccncc2)c1=N
→ ?	-19.5%	2.0%	1.5%	-0.9%	-2.4%	?	?
> Nc1cc(N)nc(SCC(=O)c2ccc3c(c2)NC(=O)CO3)n1
→ ?	-10.5%	-11.1%	11.6%	-0.4%	5.3%	nt	nt
> Cc1cccc(C(=O)Nc2ccc(OCc3cc(=O)n4ccsc4n3)cc2)c1
→ 11.9%[46.1 µM]	-11.4%	nt	nt	nt	6.1%[46.1 µM]	2.1%	1.0%
> CCOC(=O)C1CCN(C(=O)COc2cccc(C)c2)CC1
→ 0.6%	nt	-15.1%	-3.2%	3.55µM*	5.5%	-6.4%	3.2%
> CN(CCCNC(=O)c1ccc(N2CCCC2=O)cc1)c1ccccc1
→ -5.5%	-29.0%	-3.8%	-2.2%	6.1%	1.5%	-3.6%	-0.5%
> COc1ccc(C(=O)N/N=C(\C)CC(=O)NC2CCCCC2)c(OC)c1
→ 13.4%[46.1 µM]	-11.3%	-4.1%	10.4%	-3.8%	5.0%[46.1 µM]	nt	nt
> CC1=C(C(=O)Nc2ccc(C)cc2C)C(c2cccs2)n2nc(SCc3ccc(Cl)cc3)nc2N1 (stereo unspecified)
→ -7.3%[46.1 µM]	2.7%	nt	nt	nt	-8.1%[46.1 µM]	2.5%	-0.2%
> CS(=O)(=O)N1CCC(C(=O)Nc2ccc(Br)cc2F)CC1
→ ?	nt	2.3%	1.2%	3.0%	-8.0%	2.0%	0.3%
> COc1cc(C(=O)N/N=C/c2cccc(Oc3ccccc3)c2)ccc1O
→ -13.4%[46.1 µM]	-21.2%	-3.2%	-6.8%	-3.1%	-12.7%[46.1 µM]	nt	nt
> CCOc1ccccc1NC(=O)Cn1nnc(C(=O)NCCc2ccc(OCC)c(OCC)c2)c1N
→ nt	?	-1.5%	11.6%	23.5%	nt	nt	nt
> CC(C)N1CCN(c2ccc(OCC3COC(Cn4cncn4)(c4ccc(Cl)cc4Cl)O3)cc2)CC1 (stereo unspecified)
→ ?	-27.3%	11.6%	nt	nt	-26.3%	nt	nt
> C=CCN1C(=O)C(C)S/C1=N\S(=O)(=O)c1ccc(Cl)cc1 (stereo unspecified)
→ -6.1%	-16.1%	0.8%	12.5%	-11.8%	1.1%	-5.7%	-0.1%
> O=S(=O)(NCCc1csc2nc(-c3ccccc3)nn12)c1cc(F)ccc1F
→ nt	18.9%	nt	nt	nt	-4.0%[46.1 µM]	-13.5%	-6.6%
> CCC(C(=O)NC1CCCCC1)n1c(SCc2ccc(F)cc2)nc2ccncc21 (stereo unspecified)
→ -20.9%[46.1 µM]	-15.2%&0.0%	4.9%	1.6%	3.6%	19.2%[46.1 µM]	0.5%&-26.8%	12.6µM*
> CCOC(=O)C1C(c2ccc(C)o2)NC(=O)NC1(O)C(F)(F)F (stereo unspecified)
→ ?	-2.1%	0.4%	2.4%	3.8%	1.8%	3.1%	-0.2%
> CCn1cc(C(=O)N2CCN(c3ccc(F)cc3)CC2)c(=O)c2cc(S(=O)(=O)N(C)C3CCCCC3)ccc21
→ ?	2.4%	nt	nt	nt	15.8%[46.1 µM]	?	-3.2%
> CCCOc1cc(C)c(S(=O)(=O)n2ccc(C)n2)cc1C
→ -0.9%	-17.6%	6.5%	-47.4%	nt	2.6%	-10.4%	-2.1%
> CC1=NOC(=O)/C1=C\c1ccccc1
→ -14.4%[46.1 µM]	?	13.3%	-2.3%	-2.9%	7.6%	nt	nt
> CCCc1cc(N2CCOCC2)n2nc(C)c(-c3ccccc3)c2n1
→ nt	?	16.7%	2.1%	-0.5%	nt	nt	nt
> CC(NC(=O)c1ccccc1F)c1ccccc1 (stereo unspecified)
→ nt	-0.8%	4.0%	1.3%	-0.2%	nt	nt	nt
> Cc1cccc(NC(=O)CSc2nc3c(oc4ccccc43)c(=O)n2Cc2ccco2)c1
→ ?	-0.5%	nt	nt	nt	nt	1.2%	0.0%
> C=CCNC(=O)c1ccc(C(=O)c2ccccc2)cc1
→ 1.1%	39.0%[activator]	-25.4%	-61.7%	2.3%	-9.6%	-7.5%	1.3%
> CC(C)(C)NC(=O)c1cccc2c1OC(C)(C)C2
→ -19.1%	-9.5%	-5.3%	-9.0%	3.6%	-2.3%	1.5%	-3.6%
> Cc1nc(C(C)NC(=O)CCc2nnc(Cc3c[nH]c4ccccc34)o2)cs1 (stereo unspecified)
→ 10.0%[46.1 µM]	-7.6%	-11.2%	0.9%	0.3%	11.0%[46.1 µM]	nt	nt
> Cc1nc(SCC(=O)Nc2ccc(F)cc2)c2oc3ccccc3c2n1
→ -8.8%	-18.9%	2.1%	-35.8%	2.8%	-13.8%	10.3%	1.7%
> Cc1ccc(NC(=O)Cn2cnc3cc([N+](=O)[O-])ccc3c2=O)c(Cl)c1
→ -0.2%[46.1 µM]	-2.4%	19.3%	5.0%	0.7%	16.7%	nt	nt
> Cc1cccc(C(=O)Nc2nnc(SCc3cc(=O)n4cccc(C)c4n3)s2)c1
→ nt	2.3%	nt	nt	nt	17.3%[46.1 µM]	9.7%	1.9%
> CCCC(=O)Nc1nn(CCC)c2nc3ccccc3cc12
→ 7.4%	10.9%	-11.5%	4.5%	-4.3%	22.7%	-1.7%	-3.3%
> CCn1ccc2c(OCC(=O)NCc3ccc(C)cc3)cccc2c1=O
→ nt	-25.1%	nt	nt	nt	nt	-2.6%	-0.2%
> Cc1cc(OCc2cc(C(=O)NC(C)c3c(C)nn(C)c3C)no2)cc(C)c1Cl (stereo unspecified)
→ nt	-1.1%	6.0%	-14.6%	-5.5%	nt	nt	nt
> C=CCOc1cccc(C2C(C(=O)c3ccc(C)o3)=C(O)C(=O)N2CCN(C)C)c1 (stereo unspecified)
→ ?	-9.3%	5.7%	-1.6%	1.0%	8.1%	-2.5%	-3.4%
> CCN(C(=O)Cn1ncc2c1-c1cc(C)ccc1OC2)c1cc(Cl)ccc1OC
→ ?	-23.1%	nt	nt	nt	nt	?	-10.6%
> O=C(O)c1ccc(N/N=C/c2ccc3c(c2)OCO3)cc1
→ ?	25.1µM*	?	-2.5%	-4.3%	?	nt	nt
> O=C(NC(NC(=S)Nc1ccccc1)C(Cl)(Cl)Cl)c1cccc(Cl)c1 (stereo unspecified)
→ ?	nt	-2.7%	5.5%	1.2%	?	-9.1%	?
> O=C(/C=C/c1ccc(S(=O)(=O)NCc2ccco2)cc1)N1CCN(c2ccccc2)CC1
→ ?	?	4.5%	nt	-4.0%	-12.9%[46.1 µM]	nt	nt
> O=C(OCn1ncc(Cl)c(Cl)c1=O)c1ccccc1Cl
→ 4.61µM*	10µM*	44.7µM*	-109.7%	-31.1%	6.51µM*	-7.0%	-9.8%
> O=C(CCCN1C(=O)c2cccnc2C1=O)Nc1ccccc1F
→ -7.2%	2.0%	-3.5%	-4.8%	1.2%	?	nt	nt
> Cc1cccc(N2CCN(C(=O)Cc3c(C(=O)O)c(C)cn3C)CC2C)c1 (stereo unspecified)
→ nt	0.0%	nt	nt	nt	10.6%[46.1 µM]	-0.5%	-0.8%
> Cc1cccc(N2CCN(C(=O)CCNS(=O)(=O)c3ccc4c(c3)CCC(=O)N4)CC2)c1C
→ ?	-7.5%	13.7%	-7.0%	2.8%	6.51µM*	?	-3.0%
> CCOC(=O)c1sc(NC(=O)COC(=O)Cn2cnc3ccccc32)c(C(=O)OCC)c1C
→ 3.3%	-14.7%	-4.6%	-10.1%	-16.6%	-5.4%	?	-5.2%
> CN1CCN(c2nc3c(c(=O)[nH]c(=O)n3C)n2CCSc2nnnn2-c2ccccc2)CC1
→ nt	-15.5%	-13.1%	3.7%	1.2%	nt	nt	nt
> CCC(=O)N(CCC(c1ccco1)c1ccccc1OC)Cc1cccs1 (stereo unspecified)
→ ?	?	6.3%[3.69 µM]	16.4%	-6.8%	-20.4%	2.3%	-3.7%
> CCCCC(=O)Nc1nc(C)c(-c2csc(Nc3cc(Cl)ccc3OC)n2)s1
→ nt	-14.4%	-4.5%	?	-3.8%	nt	10µM*	0.5%
> COc1ccc(NC(=O)c2cccc(NC(=O)C3C4CC5OC(=O)C3C5C4)c2)c(OC)c1 (stereo unspecified)
→ 13.0%&13.0%[46.1 µM]	-13.6%	42.4%	-8.8%	2.1%	-6.2%	-4.4%	-1.2%
> Cc1nc2ccccc2n1CC(=O)N1CC(=O)Nc2ccccc21
→ 9.4%	nt	0.9%	-0.8%	4.0%	6.7%	-3.8%	-0.6%
> O=C(Nc1ccc(S(=O)(=O)N2CCCC2)cc1)N1c2ccccc2Sc2ccccc21
→ ?	nt	-2.0%	-12.7%	-1.6%	?	?	1.3%
> Nc1c(C(=O)OCC2CCCO2)c2nc3ccccc3nc2n1Cc1cccs1 (stereo unspecified)
→ ?	?	-3.1%	?	-16.5%	?	?	6.7%
> C=CCOc1ccc(Br)cc1/C=C1\NC(=S)N(C(C)=O)C1=O
→ -4.9%[46.1 µM]	5.0%	?	-106.5%	-5.3%	-18.3%[46.1 µM]	nt	nt
